Sa helicase inh: inhibitors of S. aureus replicative helicase, primary screen, biochemical, fluorescence unwinding readout; purified S. aureus helicase, fluorescence unwinding assay; about half of the hits fall short of the stated cut; 120,000 tested, 0.05% active; inhibition, %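 (tested at about 80 µM)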;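 active = both duplicates at 50% or more, or one of them with a favoured structure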;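 also: 0% = mean of negative control wells and 100% = mean of positive control wells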
MgrA-DNA mod: S. aureus MgrA activity modulators, primary screen, biochemical, S. aureus Newman, fluorescence polarization; inhibition, %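 (about 10 µg/mL by stock and volumes)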; MgrA-DNA binding; 84,000 tested, 0.13% active;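 active = above 50% in either of two replicates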;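 also: 0% = protein plus DNA without compound and 100% = DNA alone without protein; higher means less MgrA bound to DNA so lower polarization; one replicate is shown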
Starred values were filed as active, the others as inactive; . = no result given. The list is partial. The share of hits here may be higher or lower than overall.

Sa helicase inh,MgrA-DNA mod,SMILES
-8,.,Cc1ccc2[nH]c(=O)c(C3=NN(C(=O)c4ccco4)C(c4ccco4)C3)c(-c3ccccc3)c2c1 (stereo unspecified)
25,.,CC(C)CC(NC(=O)CC12CC3CC(CC(C3)C1)C2)C(=O)O (stereo unspecified)
0,.,CNC(=O)NC(=O)C(C)N1c2ccccc2NC(=O)C1CC(=O)Nc1ccc(C)cc1C (stereo unspecified)
.,-4.0,Cc1nc(-c2noc(-c3cccc(Cl)c3)n2)c(C(F)(F)F)o1
.,1.6,CC1CCC(C)N1c1cc(C(F)(F)F)cc(C(F)(F)F)c1 (stereo unspecified)
-8,.,COC(=O)c1ccc(C)c(NC(=O)C(C)NC(=O)C(c2ccccc2)c2ccccc2)c1 (stereo unspecified)
13,2.5,CCOC(=O)c1c(C)oc2c1c(O)c(N=O)c1ccccc12
17,-8.6,O=C(NC1CC1)c1ccc(CN(c2ccccc2)S(=O)(=O)c2ccccc2)cc1
-26,.,CCCOc1ccc(/C(C)=N\NC(=O)c2nnn(-c3nonc3N)c2CSc2ccccc2)cc1OC
16,.,COc1ccc(OC)c(NC(=O)CC2Sc3ccccc3NC2=O)c1 (stereo unspecified)
.,-1.7,O=C(O)CC(CC(=O)O)c1ccc(C(F)(F)F)cc1
1,1.6,CCCN(CCC)C(=O)c1cc(S(=O)(=O)N2CCc3ccccc32)cn1C
15,0.9,Cc1cc(S(=O)(=O)N2CCN(C)CC2)c(C)cc1Cl
7,.,O=C(N/N=C/c1ccco1)c1nn(Cc2ccccc2)c(=O)c2ccccc12
10,-6.6,O=C(Nc1ccccc1I)c1ccnc(-n2cnnc2)c1
-8,1.8,COC(=O)C1=CN(c2cc(C)cc(C)c2)C=C(C(=O)OC)C1c1ccc(OC)c(O)c1
.,1.8,COc1ccc(Br)cc1C1SCC(=O)N1c1ccc(NC(C)=O)cc1 (stereo unspecified)
3,-0.9,COc1ccc(-c2cc(NC(=O)Nc3ccccc3)n(-c3ccccc3)n2)cc1
-11,.,Cc1cc(C)n(CC(=O)N/N=C/c2sc(N3CCCCC3)nc2-c2cccs2)n1
12,.,Cc1ccccc1N1C(=O)c2ccccc2C1=O
-37,.,O=C(Cn1cnc2c(nc3n2CCCCC3)c1=O)NC1CCCCCC1
13,-0.8,COC(=O)CSc1nnc(CNC(=O)c2ccccc2F)n1Cc1ccccc1
4,0.1,CCCCNC(=S)Nc1ccc(C)cc1
.,-1.9,CCOC(=O)CSc1ncc(C(F)(F)F)cc1Cl

4 entries from above, with two lines to a compound:
Each structure is followed by: Sa helicase inh | MgrA-DNA mod
CCCOc1ccc(/C(C)=N\NC(=O)c2nnn(-c3nonc3N)c2CSc2ccccc2)cc1OC
  -26 | .
O=C(Cn1cnc2c(nc3n2CCCCC3)c1=O)NC1CCCCCC1
  -37 | .
COC(=O)C1=CN(c2cc(C)cc(C)c2)C=C(C(=O)OC)C1c1ccc(OC)c(O)c1
  -8 | 1.8
O=C(N/N=C/c1ccco1)c1nn(Cc2ccccc2)c(=O)c2ccccc12
  7 | .

Remaining list, next part:
Sa helicase inh,MgrA-DNA mod,SMILES
4,-2.1,O=C(Cc1ccccc1)N1CCC(c2nc3ccccc3[nH]2)CC1
-1,.,CNC(=S)NCC(c1ccco1)N1CCCCC1 (stereo unspecified)
-12,.,CS(=O)(=O)n1cc(C(=O)C(F)F)c2ccccc21
-19,.,COCC(C)Nc1ncnc2c1c(-c1ccccc1)cn2-c1ccccc1 (stereo unspecified)
8,-0.8,O=C(Nc1c[nH]c(=O)[nH]c1=O)c1ccco1
-15,.,CN(C)c1ccc(NC(=O)CSc2nnc(C3CC3)n2N)cc1
.,-2.6,O=C(CSc1nccc(-c2ccco2)n1)Nc1ccc(F)cc1F
10,2.9,Oc1ccccc1C=Nc1ccc2oc(-c3cccc(I)c3)nc2c1
.,-0.6,CCOc1ccc(/C=C(\C#N)c2nc3ccccc3[nH]2)cc1
-16,4.0,CC(C)(C)C(=O)CSc1cccc2cccnc12
6,20,CC(C)(O)C1Cc2cc(/C=C/C(=O)O)c(O)cc2O1 (stereo unspecified)
-4,.,Cc1ccc(C)c(CN2CCN(c3ncc(C(F)(F)F)cc3Cl)CC2)c1
.,-2.2,COc1cc(-c2nc3ccccc3c(=O)[nH]2)cc(OC)c1OC
.,1.7,CCOc1ccc(/C=N/NC(N)=S)cc1
.,1.5,CCN1CCN(C(=O)NC(C(=O)N[C@@H]2C(=O)N3[C@@H]2SC(C)(C)[C@@H]3C(=O)O)c2ccccc2)C(=O)C1=O (stereo partly specified)
-11,0.8,O=C(Nc1ccccc1Cl)c1cc2c(s1)-c1ccccc1S(=O)(=O)C2
8,-3.2,CCn1c(=O)c2ccccc2n(Cc2cccc(Cl)c2)c1=O
-3,13,OC(COc1ccc(Cl)cc1Cl)CN1CCCCC1 (stereo unspecified)
2,.,NC(=O)C[C@H](NC(=O)c1ccccc1Cl)C(=O)O
.,-2.5,COC(=O)c1scc(C#N)c1-n1cccc1
6,.,O=C(O)CSc1c2c(nc3cc(C(=O)NC4CCCCC4)ccc13)CCCC2
21,-1.5,O=C(CSC1CCCC1)c1cccc(C(F)(F)F)c1
3,.,CC(NC(=O)COc1ccccc1)C(=O)N1CCC(=O)CC1 (stereo unspecified)
-5,.,CC(Sc1nnc(-c2ccc(Cl)cc2)n1Cc1ccco1)C(=O)NCCC1=CCCCC1 (stereo unspecified)
-17,.,Cc1ccc2nc(CSc3nc4ccccc4n3C)cc(=O)n2c1
.,3.2,O=C1CC(c2ccccc2)CC2=C1C(c1cc3c(cc1Br)OCO3)Nc1ccccc1N2 (stereo unspecified)
10,.,O=c1cc(CSc2ccc(Cl)cc2)nc2nc[nH]n12
-20,.,CCCCc1cc2c(=O)c(-c3ccccn3)coc2cc1O
.,0.6,CS(=O)(=O)c1ccc(C(=O)Nc2ccccc2)cc1
.,-2.0,COc1ccc(-c2cc(C(F)(F)F)n3nc(C(C)(C)C)cc3n2)cc1
-30,.,CCOC(=O)c1cnn(C)c1NS(C)(=O)=O
12,0.6,O=S(=O)(NCc1ccc2c(c1)OCO2)c1ccc(S(=O)(=O)NC2CCCCC2)cc1

Single entries from above:
In MgrA-DNA mod, O=C1CC(c2ccccc2)CC2=C1C(c1cc3c(cc1Br)OCO3)Nc1ccccc1N2 (stereo unspecified) has the entry 3.2
In Sa helicase inh, O=c1cc(CSc2ccc(Cl)cc2)nc2nc[nH]n12 has the entry 10

Following part.
Sa helicase inh,MgrA-DNA mod,SMILES
-7,2.5,CC(=O)Nc1c(Cl)c(Cl)c(NC(C)=O)c2n[nH]nc12
-1,-0.3,CC(C)CCNS(=O)(=O)c1cc(Br)cnc1N
.,1.1,COc1cc(Br)c(C2C(C(=O)OC3CCCC3)=C(C)NC3=C2C(=O)CC(C)(C)C3)cc1OC (stereo unspecified)
2,.,CCOC(=O)c1c(C)oc2c1c(C=NC1CC(C)(C)NC(C)(C)C1)c(O)c1ccccc12
9,-1.2,O=C(OCc1ccccc1)N1CCOCCN(C(=O)OCc2ccccc2)CCOCC1
.,3.2,Cc1cc(SCC2=NNC(=O)C2)c(C)cc1Cl
2,4.0,Nc1nnc(CC(=O)N2CCCC2)s1
.,-1.2,NC(=O)N/C(CSc1ccc(Cl)cc1)=N\O

Some of these compounds in order of the Sa helicase inh value, high to low:
Sa helicase inh,MgrA-DNA mod,SMILES
17,-8.6,O=C(NC1CC1)c1ccc(CN(c2ccccc2)S(=O)(=O)c2ccccc2)cc1
2,.,CCOC(=O)c1c(C)oc2c1c(C=NC1CC(C)(C)NC(C)(C)C1)c(O)c1ccccc12
-30,.,CCOC(=O)c1cnn(C)c1NS(C)(=O)=O

New compounds follow.
Sa helicase inh,MgrA-DNA mod,SMILES
2,-0.9,NNC(=O)C1CCN(S(=O)(=O)c2ccccc2N)CC1
-6,.,O=C(c1cccc(S(=O)(=O)Nc2cc(C(F)(F)F)ccc2Cl)c1)N1CCN(c2ncccn2)CC1
19,-1.0,Cc1ccccc1C(=O)NCC1COc2ccccc2O1 (stereo unspecified)
.,0.2,O=C(Cc1c(O)c2ccccc2oc1=O)c1ccc2c(c1)OCCO2
.,1.1,C(=N/n1cnnc1)/c1ccsc1
-8,.,Cc1ccsc1C(=O)Nc1cc(C(C)(C)C)nn1-c1ccccc1
-21,1.5,Cc1ccc(C)c(NC(=O)COC(=O)c2ccc[n+]([O-])c2)c1
8,0.8,Cc1ccc2nc(-c3ccc(NC(=O)C(C)C)cc3)[nH]c2c1
16,-0.2,Cc1nnc(NN2CCOCC2)[nH]c1=O
.,3.8,CCN1CCN(c2nc3c(c(=O)n(C)c(=O)n3C)n2Cc2ccc(Br)cc2)CC1
-3,.,COC(=O)c1ccc(C2NC(=O)NC(=O)N2)cc1
-8,.,Cc1ccc(NCc2ccccc2)cc1
-6,.,O=C(CSc1nnc(-c2ccc3c(c2)OCO3)o1)OCCN1C(=O)c2ccccc2C1=O
0,.,Cc1noc(/C=C/N2CCOCC2)c1S(=O)(=O)N(C)CCc1ccc(Cl)cc1
-3,1.4,O=C(Nc1ccc(Br)cc1F)C1CCC1
.,-0.2,c1csc(-c2csc(-c3ccc4c(c3)OCCO4)n2)c1
3,-5.4,COc1ccccc1-c1cc(=O)c2ccccc2o1
5,.,CCCC(=O)NCc1ccc2[nH]c3c(c2c1)CCCC3
3,.,O=C(CNCC1(N2CCOCC2)CCCCC1)Nc1ccc(Cl)cc1
.,4.0,O=c1[nH]c2cccnc2[nH]c1=O
12,6.9,Cc1ccc2nc(SCC(=O)NCc3ccco3)c(C)cc2c1
10,.,O=C(Oc1ccc2ccccc2c1CN1CCOCC1)c1cc(=O)[nH]c2ccccc12
12,.,CCN(CC)CCSc1nc(O)c(C2CCCCC2)c(=O)[nH]1
-18,.,CC1Cc2ccccc2N1C(=O)C12CCC(C)(C(=O)O1)C2(C)C (stereo unspecified)
2,.,CC1NC(=S)N(Cc2ccccc2)C1=O (stereo unspecified)
8,1.2,CSc1nnc2c(n1)OC(C)N(C(C)=O)c1ccccc1-2 (stereo unspecified)
-17,.,COc1ccc2ncc(C(=O)c3ccc(C)c(C)c3)c(N3CCOCC3)c2c1
-10,-0.3,Cc1nn(C)c(C)c1/C=C/C(=O)C(C)(C)C
1,1.8,Cc1ccc(C(=O)c2c(NC(=O)c3ccncc3)sc3c2CCCC3)cc1
8,.,N#Cc1ccc(OCC(O)CNC23CC4CC(CC(C4)C2)C3)cc1 (stereo unspecified)
16,1.9,Cc1nn2c(=O)cc(CSc3nc4ccccc4[nH]3)nc2s1
6,-2.4,O=C(O)CC(c1ccc(Cl)cc1)N1C(=O)CCC1=O (stereo unspecified)

Looked up one by one from the list above, 2 records:
Sa helicase inh,MgrA-DNA mod,SMILES
-10,-0.3,Cc1nn(C)c(C)c1/C=C/C(=O)C(C)(C)C
1,1.8,Cc1ccc(C(=O)c2c(NC(=O)c3ccncc3)sc3c2CCCC3)cc1

Remaining list, next part:
Sa helicase inh,MgrA-DNA mod,SMILES
25,.,O=C(NNc1nc2cc3c(cc2s1)OCO3)c1ccccc1
.,1.6,Cc1ccc(C=Nc2cccc3nsnc23)c(O)c1
13,.,O=C(CCCCl)NC(c1ccccc1)c1ccccc1
.,-0.8,OCc1nccn1Cc1ccc(Cl)cc1
-7,2.8,Nc1nnc(SCCN2C(=O)c3ccccc3S2(=O)=O)s1
1,-0.4,Cc1cc(Nc2ccc(Cl)cc2)n2c(nc3ccccc32)c1C#N
17,0.6,C=C(C)CNC(=S)Nc1scc(-c2ccsc2)c1C(=O)OCC
19,0.9,CC1CCCN(C(=O)C(Cc2ccccc2)NS(=O)(=O)c2ccc3c(c2)CCC(=O)N3)C1 (stereo unspecified)
.,-2.7,O=C(O)C1CCN(C(=O)C2CCCCC2)CC1
4,0.8,Clc1ccc(-c2ncnn2-c2ccc(Br)cc2)cc1
-4,.,Cc1cc(C)n(CCCNC(=O)/C=C/c2c(Cl)nc3ccccn23)n1
9,.,COc1ccccc1NC(=O)Nc1cc(C(C)(C)C)nn1C
5,.,C=CCNC(=S)NNc1nc(NCC)nc(NCC)n1
.,-0.7,c1csc(-c2nc(-c3cc4ccccc4o3)cs2)c1
2,.,COC(=O)C1=C(NC(=O)Cc2ccccc2)CCS1
9,.,O=C(CCn1nc(-c2ccc(Cl)cc2)ccc1=O)NC1CCCCC1
5,-6.5,CCOc1cc(CNCc2cccnc2)cc(Cl)c1OCC(N)=O
2,-0.4,COc1cccc(-c2noc(-c3ccc(Br)o3)n2)c1
6,-0.7,CC(Sc1ccc(Br)c2cccc(C(=O)O)c12)C(=O)O (stereo unspecified)
3,.,O=C(Cn1cc(C(=O)C2CC2)c2ccccc21)NCc1ccc2c(c1)OCO2
-4,.,COc1ccc(CCN(C)C(=O)c2cncc(Br)c2)cc1OC
-4,-1.5,Cc1ccc(-[n+]2cc(Cl)on2)cc1
4,.,C=CCn1c(=O)c2ccccc2n2c(SC3CCOC3=O)nnc12 (stereo unspecified)
-19,.,COc1cccc2sc(=NC(=O)C3CCCCC3)n(C)c12
8,-0.1,CCN(C(=O)Cn1cnc2ccccc21)c1ccccc1
1,.,CCCOc1ccc(N2CC(C(=O)Nc3ccc4c(c3)OCO4)CC2=O)cc1 (stereo unspecified)
9,-0.1,C=CCn1c(CCn2c3ccccc3c3ccccc32)n[nH]c1=S
.,-0.8,O=C(NC1CCN(Cc2ccc(Cl)c(Cl)c2)CC1)c1ccccc1
13,.,CCOC(=O)c1ccc(NC(=O)c2cc(C)nn2-c2ccccc2)cc1
6,-0.1,c1cc(C23CC4CC(CC(C4)C2)C3)ccc1CN1CCOCC1
3,-0.1,O=C(COc1ncnc2ccccc12)NCCC1=CCCCC1

Compound activity (PubChem BioAssay)
